# Screening data from PubChem BioAssay.
# Rango complex inh – Rango-importin beta binding inhibition; Q14974; Rango CFP/YFP FRET sensor + importin beta, 45 min; Potency, µM (series often up to 92.2 µM), for inactives: at the top dose inhibition of complex formation; 0.031% of 340,000 active; AID 540263; active = rising FRET ratio curve, often small or poorly fitted; inconclusive = mostly compound fluorescence or quenching in the first reads; inactive = flat curves in all reads;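 further: potency means the concentration at half of the fitted maximal effect; 0% = DMSO wells and 100% = buffer wells lacking importin beta; nearly all actives have a fitted effect of over 15% in size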
#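 FRET biosensor (snurportin 1 IBB flanked by EYFP and cerulean), 50 nM, with compound 5 min, then 0.125 microM importin beta in PBS, 1 mM DTT, 0.02% Tween-20, 0.1% BSA. CFP/YFP ratio read after 45 min at room temperature; pre-read flags interference.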
# Rango release inh – prevents RanGTP from dissociating the Rango-importin beta complex; O95149+P62826; Potency, µM (titrated, usually from 46.1 µM), for the others: top-dose activity change, negative = inhibition; 0.071% of 340,000 active; Biochemical FRET Rango-importin beta, RanGTP-induced dissociation; active means falling FRET ratio curve, often poorly fitted, with flat reads before Ran was added; inconclusive means other falling curves, or compound fluorescence or quenching; inactive means flat or rising ratio curve;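 further: potency means the concentration at half of the fitted maximal effect; % of control where 0% means no effect; nearly all actives have a fitted effect of over 45% in size; -100% = wells without RanGTP and RCC1; the record marks most hits as doubtful in a second field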
#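 Quantitative HTS using a FRET biosensor: 0.1 uM Rango, 0.25 uM importin beta, 0.6 uM Ran, 2 mM GTP, 0.2 uM RCC1 final, PBS with DTT, Tween-20 and BSA. Post-read taken 45 min after Ran addition.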
# miR-21 FLuc – raises the signal of a miR-21 reporter | 340,000 tested, under 10 active | HeLa miR-21 FLuc reporter, luciferase, 48 h | Potency, µM (series often up to 38.3 µM), for the others: at the top dose reporter change, positive = more light; active = well fitted rising curve with a large enough effect; inconclusive = small, poorly fitted or top-dose-only effect; inactive = no such curve, though single readings can be large or run the other way;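 further: % of control where 0% means no effect; miR-21 action dims this reporter so a rising signal means less miR-21 action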
#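 HeLa cells stably expressing CMV-driven firefly luciferase with a downstream miR-21 binding sequence, endogenously expressing miR-21, were treated with titrations (up to about 40uM final) for 48 hours at 37 degree Celsius. Luciferase luminescence was read after lysis.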
# GLA inh pH 4.5 – alpha-galactosidase A (human) inhibition, pH 4.5 | P06280 | purified enzyme, 4-MU-alpha-Gal fluorescence, pH 4.5 | activity change, negative = inhibition, % at 105 µM | 230,000 tested, under 10 active | AID 1467; inconclusive = small, poorly fitted or top-dose-only inhibition, or a rising curve; inactive = flat fitted curve, though single readings scatter; no compound was filed as active;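 further: 0% = full activity with enzyme and -100% = basal without enzyme; dose as in the result columns while the protocol names 77 µM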
# Target sequence (P06280 whole entry, looked up): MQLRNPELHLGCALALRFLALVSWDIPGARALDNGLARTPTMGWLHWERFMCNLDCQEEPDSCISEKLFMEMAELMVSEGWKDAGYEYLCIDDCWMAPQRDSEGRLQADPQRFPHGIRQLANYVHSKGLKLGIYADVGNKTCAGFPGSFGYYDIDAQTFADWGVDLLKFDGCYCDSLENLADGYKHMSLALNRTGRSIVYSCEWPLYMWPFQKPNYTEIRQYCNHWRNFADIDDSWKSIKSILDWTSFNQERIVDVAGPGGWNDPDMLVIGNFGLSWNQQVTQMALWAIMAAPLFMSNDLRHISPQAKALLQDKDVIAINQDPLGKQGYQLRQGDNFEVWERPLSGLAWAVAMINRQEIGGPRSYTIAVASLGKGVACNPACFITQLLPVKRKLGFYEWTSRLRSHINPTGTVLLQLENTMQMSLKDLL
# * = called active by the depositor; ? = inconclusive; . = not tested or not shown; & = joins results of further samples; [ ] = another dose, or the depositor's remark.
SMILES,Rango complex inh,Rango release inh,miR-21 FLuc,GLA inh pH 4.5
COc1cc(Cl)c(C)cc1NC(=O)CSc1nc2ccccc2o1,0.8%,-9%,-6%,3
COC(c1ccccc1)c1nnc(CCC(=O)N(C)CCOc2ccccc2)o1 (stereo unspecified),2.4%,0%,-50%,1
Cc1c(NC(=O)c2cnn3c2NC(c2ccc(Br)cc2)CC3C(F)(F)F)c(=O)n(-c2ccccc2)n1C (stereo unspecified),3.5%,-4%,0%,-7
CCn1c(CN2CCN(C(=O)c3ccco3)CC2)nc2c1c(=O)n(C)c(=O)n2C,-3.4%,0%,0%,0
COc1ccc(Nc2nc(-c3cc4cccc(OC)c4oc3=O)cs2)cc1,?,1%,-41%,1
O=C(c1ccccc1)N1N=C(c2ccc(F)cc2)CC1c1ccc(F)cc1 (stereo unspecified),-4.9%,-4%,.,.
O=C(NCC(=O)N1CCCCC1)c1ccc(Cl)cc1Cl,1.4%,6%,-40%,-2
COc1ccc(N2C(=O)CSC23C(=O)N2c4c(cccc43)C(C)=CC2(C)C)cc1 (stereo unspecified),8.3%,2%,1%,-10
Cc1n(C)c2cc(Cl)ccc2[n+]1Cc1ccccc1,3.7%,-6%,13%,0
O=C(Oc1ccc(-c2nnco2)cc1)c1ccc(Br)o1,?,7%,-3%,.
CCN(CCCCCN(C)C)Cc1cc2ccccc2o1,-6.9%,9%,-14%,-1
Fc1cccc(Cl)c1Cn1nnc(-c2ccc3c(c2)OCO3)n1,2.7%,2%,-59%,-4
CCN1CCCC1CNC(=O)c1cc2c(-c3ccc(Cl)cc3)nn(C)c2s1 (stereo unspecified),3.4%,-10%,13%,-3
CC(C)OC(=O)NC(Nc1ccccc1C(=O)O)(C(F)(F)F)C(F)(F)F,0.1%,10%,-4%,5
O=C(c1cccc(Br)c1)N1CCN(c2cnn(-c3ccccc3)c(=O)c2Cl)CC1,0.3%,-4%,5%,5
COc1ccc(C2/C(=C(/O)c3ccccc3)C(=O)C(=O)N2CCN2CCOCC2)c(OC)c1 (stereo unspecified),-1.0%,9%,-14%,-2
COc1cccc(C2CCCN2Cc2nc(-c3cnccn3)no2)c1 (stereo unspecified),0.4%,?,3%,0
Cc1ccc(NC(=O)CCc2c(C)nn(-c3ccc(N4CCOCC4)nn3)c2C)cc1F,2.0%,0%,-30%&-2%,.
COc1ccc(/C=N/NC(=O)c2cc(C(C)(C)C)[nH]n2)cc1COc1ccc(F)cc1F,2.3%,0%,12%,-11[21.1 µM]
O=c1c2cnn(-c3ccccc3)c2nnn1Cc1ccccn1,-0.6%,-7%,0%,-1
COc1ccc(OC)c(/C(O)=C/C(=O)C(=O)Nc2cc(C)ccc2OC)c1,-3.0%,-5%,-1%,5
CCOC(=O)c1sc(NC(=O)C(OC(C)=O)c2ccccc2)nc1C (stereo unspecified),0.2%,10%,-38%,8
CC(=O)N1CC=CC1(CC(C)C)C(=O)NCCN1CCOCC1 (stereo unspecified),-0.2%,-8%,-22%,7
N/C(=N\OC(=O)CC(c1ccccc1)c1ccccc1)c1cccnc1,-1.8%,0%,5%,3
O=C(COC(=O)CNC(=O)C12CC3CC(CC(C3)C1)C2)Nc1ccccc1,5.5%,-3%,-2%,2

# (listing goes on)
SMILES,Rango complex inh,Rango release inh,miR-21 FLuc,GLA inh pH 4.5
NS(=O)(=O)c1cc2c(cc1Cl)NC(c1ccccc1OCC(=O)O)NS2(=O)=O (stereo unspecified),-1.5%,-19%,-15%,.
O=C(CSc1nc2scc(-c3cccs3)c2c(=O)n1CCc1ccccc1)N1CCCC1,2.4%,6%,.,.
O=C1C(Cl)=C(NCC2CCCO2)C(=O)N1CCc1ccccc1 (stereo unspecified),?,-29%,-37%,-7
CSc1ccccc1NC(=O)C(=O)c1c[nH]c2ccccc12,-1.0%,-4%,-26%,-27
Cn1c2c(c(=O)n(C)c1=O)CN(CCCN1CCOCC1)CN2,2.7%,7%,-2%,2
CCOc1ccc(S(=O)(=O)NN2Cc3ccccc3C2=N)cc1,3.9%,-8%,2%,-3
Cc1c(Cl)cccc1NC(=O)NNC(=O)CCc1ccccc1,2.0%,-5%,4%,.
COc1ccc(S(=O)(=O)/C(C#N)=C/Nc2cccc(F)c2)cc1,2.2%,3%,1%,.
Cc1ccc(S(=O)(=O)Nc2ccc(S(=O)(=O)Nc3cc(C)nc(C)n3)cc2)cc1,-0.3%,?,2%,-2
COc1ccc(OC(C)C(=O)NCc2cccnc2)cc1 (stereo unspecified),1.3%,3%,1%,4
O=C(COC(=O)CC1CC2CCC1C2)Nc1cc([N+](=O)[O-])ccc1F (stereo unspecified),2.7%,4%,-1%,-5
COc1ccc(NC(=O)COc2ccccc2)c(OC)c1,-0.9%,-1%,-59%,0
N/C(=N\OC(=O)c1cccc(Cl)c1)c1ccncc1,0.5%,19%,-51%,-1
Cc1ccc(C(=O)N2CCN(c3ccc(NC(=O)c4ccc(Br)o4)cc3)CC2)cc1,-0.3%,-4%,?,-3
COc1ccc(Cl)cc1NC(=O)NC(C)C(C)(C)C (stereo unspecified),-1.2%,-12%,0%,2
COc1ccc(/C=C/C(=O)c2ccccc2)cc1COc1ccc(F)cc1,1.0%,4%,0%,-7
CCOC(=O)C1C(=O)C=C(c2ccc(Br)cc2)CC1c1ccco1 (stereo unspecified),1.7%,-6%,3%,0
COc1ccccc1CNC(=O)Cc1c[nH]c2ccccc12,4.4%,-10%,-19%,.
CC(=O)Oc1ccc(C(=O)Nc2cc(C)on2)cc1,1.6%,2%,-29%,.
Cc1cccc(C2c3[nH]c4ccccc4c3CCN2Cc2cnn(-c3ccc(F)cc3)c2)n1 (stereo unspecified),-0.7%,1%,-5%,-7
N#C/C(=C1/C(=O)Nc2ccc(Br)cc21)c1ccccn1,0.5%,22%,12%,-4
Clc1ccc(C(c2ccccc2Cl)C(Cl)Cl)cc1 (stereo unspecified),-2.0%,8%,.,-3&1
NC(=O)CSc1nc2ccccc2n1-c1ccccc1,-5.7%,-7%,0%,-3
CCOC(=O)C1CCN(c2c(Nc3ccc(C)c(C)c3)c(=O)c2=O)CC1,-2.0%,14%,-1%,-5
COc1ccccc1CNC(=S)NCCc1ccccc1,-1.1%,?,-32%,-3

# Further records:
SMILES,Rango complex inh,Rango release inh,miR-21 FLuc,GLA inh pH 4.5
CC(=O)Oc1ccccc1-n1c(C)nc(=O)c(-c2ccccc2)c1C,-0.5%,-3%,-1%,-4
NC(=S)NC1CC2CC1C1C=CCC21 (stereo unspecified),1.0%,6%,2%,-6
O=C(COc1ccccc1)NCc1nnc(SCC(=O)Nc2nccs2)n1-c1ccccc1,-2.5%,3%,4%,-1
O=C(Cn1cnc2ccccc2c1=O)Nc1ccc(S(=O)(=O)N2CCOCC2)cc1,1.2%,4%,0%,-4
CCN1/C(=C2\C(=O)N(C)C(=S)N2C)C=Cc2ccccc21,-2.7%,-12%,-2%,-1
CCCNC(=O)c1onc(CSc2ccc(F)cc2)c1C(=O)NCCOC,-0.7%,10%,.,.
S=C(NCC1CCCO1)Nc1cc(Cl)c(Cl)cc1Cl (stereo unspecified),-1.2%,-17%,0%,-4
CC(=O)NNS(=O)(=O)c1scc(S(=O)(=O)c2ccc(Cl)cc2)c1C,3.1%,-8%,-2%,.
c1cncc(-c2nnc3n2N=C(c2cccs2)CS3)c1,1.2%,-5%,-4%,0
CC(=O)c1ccc(N2CCN(C(=O)c3ccc(Cl)c(S(=O)(=O)NC4CC4)c3)CC2)c(F)c1,?,0%,.,.
COc1ccccc1/C=C/C(=O)Nc1nc(N)n(-c2ccccc2)n1,-5.2%,-3%,-9%,0
CN1C(=O)CC(n2c(CO)nc3ccccc32)C1=O (stereo unspecified),-2.0%,1%,-2%,1
CCC(=O)N1c2ccc(S(=O)(=O)CCC(=O)NCCC3=CCCCC3)cc2CC1C (stereo unspecified),0.0%,6%,5%,0
CCn1cc(CNC(=O)/C=C/c2ccc([N+](=O)[O-])cc2)c(C)n1,-2.2%,3%,6%,-27
NC(=O)c1ccc(NC(=S)NCc2ccco2)cc1,-0.8%,-7%,-12%,5
CC1=NN(c2ccc(Cl)c(C(=O)O)c2)C(=O)C1,1.5%,-1%,-5%,4
COc1cc(/C=C(\C#N)C(=O)Nc2ccc(SC(F)F)cc2)cc(OC)c1OC,-1.2%,-18%,-4%,2
CCC(C)NC(=O)[C@H](CSCc1ccccc1)N1Cc2ccccc2C1=O (stereo partly specified),0.0%,-2%,-8%,0
COCCNC(=S)c1ccc(OC)cc1,0.3%,22%,-13%,-10
COc1ccc(N(CC(=O)NC2CCCC2)C(=O)c2ccc(C)s2)c(OC)c1,0.1%,-8%,-5%,.
CN(C)CCCN1C(=O)c2cccc3c([N+](=O)[O-])ccc(c23)C1=O,?,?,?,7
CCCn1c(N)c(N(CCOC)C(=O)c2ccc(Cl)c([N+](=O)[O-])c2)c(=O)[nH]c1=O,-0.4%,38%,-3%,.
O=C(NNC(=O)c1ccccc1[N+](=O)[O-])c1cccs1,-5.7%,-21%,-4%,11
COC(=O)c1ccc(NC(=O)COc2ccc(N(C)S(=O)(=O)c3ccc(C)cc3)cc2)cc1,1.5%,2%,.,.
COC(=O)c1cccc(OCC(O)Cn2ccnc2)c1 (stereo unspecified),-0.3%,-15%,1%,7

# Sorted by number of heavy atoms (descending): 14 of the compounds above
SMILES,Rango complex inh,Rango release inh,miR-21 FLuc,GLA inh pH 4.5
O=C(COc1ccccc1)NCc1nnc(SCC(=O)Nc2nccs2)n1-c1ccccc1,-2.5%,3%,4%,-1
O=C(CSc1nc2scc(-c3cccs3)c2c(=O)n1CCc1ccccc1)N1CCCC1,2.4%,6%,.,.
O=C(Cn1cnc2ccccc2c1=O)Nc1ccc(S(=O)(=O)N2CCOCC2)cc1,1.2%,4%,0%,-4
CCn1c(CN2CCN(C(=O)c3ccco3)CC2)nc2c1c(=O)n(C)c(=O)n2C,-3.4%,0%,0%,0
CCCNC(=O)c1onc(CSc2ccc(F)cc2)c1C(=O)NCCOC,-0.7%,10%,.,.
N/C(=N\OC(=O)CC(c1ccccc1)c1ccccc1)c1cccnc1,-1.8%,0%,5%,3
COc1cccc(C2CCCN2Cc2nc(-c3cnccn3)no2)c1 (stereo unspecified),0.4%,?,3%,0
CCOC(=O)C1C(=O)C=C(c2ccc(Br)cc2)CC1c1ccco1 (stereo unspecified),1.7%,-6%,3%,0
CCn1cc(CNC(=O)/C=C/c2ccc([N+](=O)[O-])cc2)c(C)n1,-2.2%,3%,6%,-27
COc1ccccc1CNC(=O)Cc1c[nH]c2ccccc12,4.4%,-10%,-19%,.
COc1ccc(OC(C)C(=O)NCc2cccnc2)cc1 (stereo unspecified),1.3%,3%,1%,4
O=C(Oc1ccc(-c2nnco2)cc1)c1ccc(Br)o1,?,7%,-3%,.
CN1C(=O)CC(n2c(CO)nc3ccccc32)C1=O (stereo unspecified),-2.0%,1%,-2%,1
CC1=NN(c2ccc(Cl)c(C(=O)O)c2)C(=O)C1,1.5%,-1%,-5%,4

# Further structures follow.
SMILES,Rango complex inh,Rango release inh,miR-21 FLuc,GLA inh pH 4.5
COCCNC(=O)c1cc(C)ccc1C,-1.0%,30%,-2%,1
CCCSc1nnc(NC(=O)Nc2ccccc2OC)s1,-2.5%,0%,-44%,-2
O=C(c1csc2c1CCCC2)N1CCN(c2ccc(F)cc2)CC1,-1.8%,-4%,-13%,-1
COc1ccccc1CN1CCNC(=O)C1CC(=O)NCc1cn(C)nc1C (stereo unspecified),0.4%,-21%,-2%,5
Cc1[nH]c2ccccc2c1N=Nc1cc(C(=O)O)cc(C(=O)O)c1,0.6%,3%,0%,-21
Cc1cccc2sc(NC(=O)CSc3nc4ccccc4o3)nc12,-0.8%,-3%,-1%,1
O=C(NCCNc1ccccc1[N+](=O)[O-])c1ccccc1F,-3.3%,-22%,-57%,.
C/C(=N\Nc1nc2ccccc2c(=O)n1O)c1ccco1,-5.3%,6%,-45%,.
Cc1ccc(S(=O)(=O)N2CCC(=O)CC2c2ccccc2)cc1 (stereo unspecified),4.8%,0%,.,.

# An excerpt. The share of hits here may be higher or lower than overall.
